Bioassay records as filed in PubChem.
A647 fluor – A647 region autofluorescence; Compound fluorescence, A647 channel (570/671 nm), Tris buffer; max dye-equivalent concentration, M; 59,000 tested, under 10 active; AID 592; active means above 1 µM dye equivalent; inconclusive means 0.1 to 1 µM; inactive means 0.1 µM or less;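 note: values scaled relative to a standard on each plate; highest value over a series up to 38 µM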
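Compound fluorescence was measured in 100 mM Tris buffer, pH 8.0, after 15 min at room temperature, using 570 nm excitation and 671 nm emission filters. Signal was normalized to a per-plate Alexa 647 standard curve and expressed as dye-equivalent concentration at each compound concentration.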
Resorufin fluor – compounds fluorescent in resorufin spectral region; Compound fluorescence, resorufin region 547/598 nm, buffer; active compounds read high; max dye-equivalent concentration, M; 0.04% of 59,000 active; AID 588; active = above 10 nM dye equivalent; inconclusive = 1 to 10 nM; inactive = 1 nM or less; a few of its hits are not listed in these tables; note: highest value over a series up to 38 µM
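Compounds in 100 mM Tris buffer, pH 8.0, incubated 15 min at room temperature, then read with 547 nm excitation and 598 nm emission filters. Fluorescence was converted to dye-equivalent concentration using an on-plate six-point resorufin standard curve.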
AID923 – qHTS Assay for Allosteric/Competitive Inhibitors of Caspase-1: Spectroscopic Profiling in AFC Spectral Region; Potency, µM (highest dose often 57.5 µM), without a hit: at the highest dose fluorescence increase, usual class: activators; AID 923, 2007; compound fluorescence, AFC spectral region (405/520 nm); almost no hit is shown here; 1.1% of 75,000 active; active = well fitted activation curve with a large enough effect; inconclusive = small, poorly fitted or top-dose-only effect;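 note: potency is the fitted concentration of half-maximal effect; 0% is about no effect; scaled to a free AFC standard on each plate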
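Titrations up to 57 uM read every 20 sec for 3 min (405/520 nm) with 50 nM caspase 1 and 5 uM Ac-WEHD-AFC, pH 7.5 HEPES buffer. Fluorescence-vs-time intercept gave baseline, scaled against on-plate AFC standard.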
A488 fluor – A488 region autofluorescence | compound autofluorescence, A488 spectral region, dye equivalency; active compounds read high | max dye equivalency, M | 0.1% of 59,000 active; active = above 10 nM dye equivalent; inconclusive = 1 to 10 nM; inactive = 1 nM or less; about half of its hits are not listed in these tables;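 note: highest value over a series up to 38 µM; compound alone in buffer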
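Compound autofluorescence was read in 100 mM Tris pH 8.0 after 15 min at room temperature, ex 480 nm/em 540 nm. Intensities were converted to A488 dye-equivalent concentration using an on-plate six-point A488 standard curve.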
TSHR agonist – activates the human thyroid stimulating hormone receptor. 0.48% of 73,000 active. Potency, µM (top dose mostly 57.1 µM), inactives show at the highest dose activation, usual class: activators. AID 926. HEK293-CNG-TSHR cells (CNG channel as cAMP sensor), membrane potential dye, cAMP; active = well fitted activation curve of enough size with the parental cells flat; inconclusive = any curve in the parental cells; inactive = parental cells flat and receptor cells flat or falling; note: potency is the fitted concentration of half-maximal effect; % of control where 0% means no effect; weak receptor curves with flat parental cells got no call and are not listed
Target sequence (P16473 whole entry, looked up): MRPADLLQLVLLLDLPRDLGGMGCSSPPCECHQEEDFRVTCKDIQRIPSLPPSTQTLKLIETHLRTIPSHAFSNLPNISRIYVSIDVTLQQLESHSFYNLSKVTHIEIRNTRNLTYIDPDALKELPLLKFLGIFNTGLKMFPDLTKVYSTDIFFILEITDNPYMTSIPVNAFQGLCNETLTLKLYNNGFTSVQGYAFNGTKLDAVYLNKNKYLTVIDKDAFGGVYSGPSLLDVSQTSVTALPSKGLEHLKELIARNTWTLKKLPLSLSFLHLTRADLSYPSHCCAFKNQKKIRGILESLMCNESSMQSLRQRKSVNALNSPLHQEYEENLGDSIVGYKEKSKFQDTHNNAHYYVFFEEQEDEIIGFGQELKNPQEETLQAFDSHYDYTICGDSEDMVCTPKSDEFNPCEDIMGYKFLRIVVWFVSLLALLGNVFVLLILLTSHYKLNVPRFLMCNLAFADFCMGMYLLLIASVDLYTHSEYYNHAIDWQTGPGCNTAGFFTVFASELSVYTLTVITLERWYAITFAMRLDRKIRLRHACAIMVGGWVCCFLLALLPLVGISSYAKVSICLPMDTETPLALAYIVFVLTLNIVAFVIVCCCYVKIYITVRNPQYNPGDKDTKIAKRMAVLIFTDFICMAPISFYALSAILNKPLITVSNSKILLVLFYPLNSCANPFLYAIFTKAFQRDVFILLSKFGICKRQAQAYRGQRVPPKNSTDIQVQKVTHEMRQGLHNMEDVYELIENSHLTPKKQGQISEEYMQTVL
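HEK 293 cells stably expressing TSHR and a cAMP-gated CNG channel; parental CNG-only cells as counterscreen. Cells preloaded 60 min with membrane potential dye plus 100 uM RO 20-1724, then compound 30 min; fluorescence read at 590 nm.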
Numbers without * were called inactive; i = inactive; u = inconclusive; x = not tested or not shown; & = joins results of further samples; [ ] = another dose, or the depositor's remark. This is a subset; the hit share may differ from the screen's.

Compound,A647 fluor,Resorufin fluor,AID923,A488 fluor,TSHR agonist
COc1cccc(OC)c1NC(=O)C1CCCN1C(=O)NCc1ccccc1 (stereo not drawn),4.2e-08,i,-2.0%,i,3%
FC(F)(F)c1ccccc1-c1nc(NC2CC2)c2ccccc2n1,1e-09,i,1.2%,i,u
O=C1c2oc3ccc(Cl)cc3c(=O)c2C(c2cccc(Br)c2)N1CCO (stereo not drawn),8.7e-09,i,-0.5%,i,9%
NS(=O)(=O)c1ccc(NC(=O)COC(=O)CSc2n[nH]c(-c3ccccc3)n2)cc1,x,x,-2.6%,x,-9%[11.4 µM]
O=C(C1CCCN1S(=O)(=O)c1ccc(Cl)c(Cl)c1)N1CCOCC1 (stereo not drawn),6.6e-09,i,1.4%,i,u
Cc1cc(C)n2nc3nc(N4CCCCC4)nc(-c4ccco4)c3c2n1,3.9e-08,i,1.2%,i,-12%
CC1(C)NC(=O)N(CC(O)CN2C(=O)NC(C)(C)C2=O)C1=O,1e-09,i,1.1%,i,4%
COc1ccc(-c2csc3c2[N+]2=CCC=C2C3=O)cc1,1e-09,i,4.4%[11.5 µM],i,2%[11.4 µM]
Cc1occc1-c1nnc(SCC(=O)Nc2ccccc2-c2ccccc2)n1C,1.2e-09,i,0.5%,i,7%
Cc1ccc(S(=O)(=O)O[C@@H]2[C@H]([C@@H]3COC(C)(C)O3)O[C@H]3OC(C)(C)O[C@@H]32)cc1,1e-09,i,-0.1%[11.5 µM],i,0%[11.4 µM]
Cc1ccc(-c2nn[nH]n2)cc1,1e-09,i,-0.5%,i,0%
O=S(=O)(c1ccc(Br)s1)n1cccn1,3.5e-09,i,-1.5%,i,8%
Cc1cnc(CNc2nc(-c3c(C)noc3C)nc3ccccc23)cn1,1e-09,i,2.0%,i,15%
O=C(CSc1nnc(-c2ccccc2)n1Cc1ccccc1)NC1CC1,1e-09,i,-1.0%,i,13%
N#Cc1c2n(c3c(=O)n(CC(=O)c4ccc(Br)cc4)cnc13)CCCC2,x,x,9.4%,x,-7%
CCn1c(SCc2cccnc2)nc2c1c(=O)n(C)c(=O)n2C,5.1e-09,i,-0.5%,i,9%
CN1C(=O)c2c(sc3c2CC(C)(C)SC3)N2CCN=C12,2.8e-08,i,9.0%,i,x
CN(C)CCCN1C(=O)C(=O)/C(=C(/O)c2ccc3c(c2)OCO3)C1c1ccco1 (stereo not drawn),1e-09,i,0.1%,i,-2%
CCN1CCN(C(c2cccs2)C(C)NC(=O)c2c(F)cccc2F)CC1 (stereo not drawn),3.1e-08,i,-2.0%,i,-6%
Cc1ccc(-c2noc(CCC(=O)NCCN3CCc4ccccc4C3)n2)cc1,1e-09,i,-0.7%,i,u
COC(=O)c1ccc(CSc2ccc3nnc(-c4cccnc4)n3n2)o1,x,x,1.7%,x,2%
Cn1c(=O)c2cc(S(=O)(=O)NCCC(=O)NCC3CCCO3)ccc2n(C)c1=O (stereo not drawn),1.4e-09,i,-0.1%,i,0%
COc1ccc(C2C3C(=O)N(Cc4ccccc4)C(=O)C3ON2c2ccccc2)c(OC)c1OC (stereo not drawn),3.2e-09,i,-0.3%,i,15%[11.4 µM]
CCOC(=O)N1CCN(C(=O)c2ccc3c(=O)n(Cc4ccc(OC)cc4)c(=S)[nH]c3c2)CC1,1e-09,i,-0.9%,i,16%
O=C(CCSc1nccn1Cc1ccccc1)N1CCOCC1,x,x,-0.8%,x,0%
Cc1nc(C)c(C(=O)Nc2ccccc2)s1,x,x,1.0%,x,6%
Cc1cc(C)n(C(=O)c2ccc(C)c(S(=O)(=O)N3CCOCC3)c2)n1,5.6e-09,i,-0.2%,i,4%
Cc1noc(C)c1S(=O)(=O)N(CC(=O)Nc1ccc2c(c1)OCCO2)c1ccc(C(C)C)cc1,x,x,-1.9%,x,20%
CC1CCc2c(sc3nc(SCc4nc(-c5ccccc5)no4)n(C)c(=O)c23)C1 (stereo not drawn),x,x,-1.5%,x,4%
Cc1ccc2cc3cc(C(=O)N4CCCCC4C)oc3nc2c1 (stereo not drawn),1.7e-09,i,-1.0%,i,18%
COC(=O)c1ccc(-n2nnnc2SCc2ccccc2OC)cc1,1e-09,i,0.0%,i,u
CN1C(=O)c2cccc(NCCCN3C(=O)c4ccccc4C3=O)c2C1=O,1e-09,i,20%,u,-7%
Cc1ccc(CN2CC(C(=O)Nc3ccc4c(C)cc(=O)oc4c3)CC2=O)cc1 (stereo not drawn),2.1e-08,i,2.7%,i,8%
COc1ccc(CCNC(=O)C2CCCN(C(=O)N(C)C)C2)c(OC)c1 (stereo not drawn),4.3e-08,i,-1.2%,i,1%
CCN(CC)C(=O)CSc1nnc(-n2nc(C)cc2C)c2ccccc12,1e-09,i,1.2%,i,10%
COC(=O)c1cc2c(s1)CS(=O)C2 (stereo not drawn),2.8e-08,i,0.3%,i,-3%
Cn1c(=O)c2c(ncn2Cc2cc(-c3ccccc3)no2)n(C)c1=O,2.7e-09,i,-2.1%,i,22%
Cc1ccccc1-c1cc(N(C)Cc2ccco2)ncn1,1e-09,i,1.5%,i,6%
O=C(CN1C(=O)COc2ccccc21)NCCCN1CCc2ccccc2C1,2e-08,i,-0.2%,i,4%
Cc1nnc2n(-c3ccccc3)c(=O)c3c4c(sc3n12)COC(C(C)C)C4 (stereo not drawn),2.1e-08,i,x,i,x
O=C(NCCN1CCN(c2ccccc2)CC1)c1ccc(NC(=O)C2CCCO2)cc1 (stereo not drawn),2.3e-09,i,0.6%,i,6%
CC1CCc2cc(F)cc3c(O)c(C(=O)Nc4cnccn4)c(=O)n1c23 (stereo not drawn),3.4e-08,i,x,i,x
Cc1ccc2[nH]c(=O)c(-c3nc4c(C)cccn4c3NCc3ccco3)cc2c1,2.8e-08,i,2.1%,i,-7%
O=C(NCCN1C(=O)C2C3C=CC(C3)C2C1=O)NCc1ccccc1 (stereo not drawn),x,x,-0.9%,x,4%
Cc1ccc(-c2nn3c(C)nnc3s2)cc1NC(=O)C(C)C,x,x,-0.2%,x,u
O=C(Nc1c(C(=O)NCc2ccco2)cnn1-c1ccccc1)c1ccc(F)cc1,x,x,-2.0%,x,27%
COc1cccc(CNC(=O)Cn2cccc2)c1,3.4e-08,i,0.1%,i,2%[11.4 µM]
CCC/C(=C1/C(=O)CC(C)(C)C(C(=O)OC)C1=O)N1CCCC1 (stereo not drawn),x,x,-0.9%,x,-4%
Cc1cc(C)nc(N2CCC(C(=O)O)CC2)n1,1.3e-08,i,4.3%,i,0%
CC(C)N(Cc1cc2ccccc2[nH]c1=O)C(=O)c1cccnc1,1e-09,i,2.8%,i,-6%
COc1ccc(N(CC(=O)Nc2cc(C(=O)O)ccc2C)S(=O)(=O)c2c(C)noc2C)cc1,1.4e-08,i,1.2%,i,-7%
COc1ccc(-n2c(SC3CCOC3=O)nc3ccccc3c2=O)cc1OC (stereo not drawn),3.2e-08,i,-0.7%,i,12%
CC(C)NC(=O)N1CCC2(CC1)CCN(S(C)(=O)=O)CC2,1.1e-09,i,1.2%,i,15%
COc1ccc(C)cc1NC(=O)CSc1nnc(COc2ccccc2)n1Cc1ccco1,1.4e-08,i,1.6%,i,x
N=C1C(c2nc3ccccc3c(=O)[nH]2)=C(O)CN1CCc1ccccc1,x,x,-0.7%,x,10%
c1cc2c(c(NCc3ccncc3)c1)CCCC2,x,x,-0.2%,x,-2%
CC(=O)N1CCN=C1SCc1ccccc1F,x,x,-2.5%,x,1%
O=C(CCC(=O)N(c1cccc(F)c1)C(C(=O)NC1CCCC1)c1ccncc1)Nc1cccnc1 (stereo not drawn),2.7e-09,i,1.2%,i,-2%
Cn1c(=O)c2c(nc(NCC3CCCO3)n2C)n(C)c1=O (stereo not drawn),2.8e-08,i,-0.9%,i,-4%
CCOC(=O)c1c(N)c(C#N)nn1-c1ccccc1C(=O)OC,1e-09,i,-1.7%,i,7%

The final two compounds of the section above lead into the next:
Compound,A647 fluor,Resorufin fluor,AID923,A488 fluor,TSHR agonist
Cn1c(=O)c2c(nc(NCC3CCCO3)n2C)n(C)c1=O (stereo not drawn),2.8e-08,i,-0.9%,i,-4%
CCOC(=O)c1c(N)c(C#N)nn1-c1ccccc1C(=O)OC,1e-09,i,-1.7%,i,7%
O=C(O)Cc1c[nH]c2ccc(O)cc12,8.3e-09,i,-4.0%,i,u
Cc1cnc(C(=O)NCCc2ccc(S(=O)(=O)NC(=O)NC3CCCCC3)cc2)cn1,1.5e-09&1e-09&1.3e-09,i,-1.8%,i,-9%[25.6 µM]
COc1cccc(-c2nnc(N(C)C(=O)c3ccno3)s2)c1,2.6e-08,i,-0.8%,i,-1%[11.4 µM]
COC(=O)NC(c1cccc(F)c1)C(C(C)=O)C(=O)OC (stereo not drawn),x,x,5.1%[11.5 µM],x,-7%[11.4 µM]
O=CN1CCN(C(C(=O)NC2CCCC2)c2ccc(Cl)cc2)CC1 (stereo not drawn),5.6e-09,i,-1.9%,i,6%
CS(=O)(=O)N(CC(O)Cn1c2ccccc2c2ccccc21)c1ccccc1 (stereo not drawn),3.8e-08,i,-0.9%,i,x
COc1ccc(OCC(O)CON2C(=O)c3ccccc3C2=O)cc1 (stereo not drawn),6.5e-09,i,0.8%,i,5%
CCCCNC(=O)CC1N=C2c3ccccc3N=C(SCC(=O)Nc3cccc(OC)c3)N2C1=O (stereo not drawn),5.9e-09,i,0.5%,i,21%
CC1=CC(C)(C)N2C(=O)C3(C(C#N)=C(N)OC4=C3C(=O)CCC4)c3c(C)c(C)cc1c32 (stereo not drawn),4.3e-08,i,-0.6%,i,1%
CCC(Sc1nc2n[nH]c(C)c2c(=N)n1-c1cccc(Cl)c1C)C(=O)N(CC)CC (stereo not drawn),6.6e-09,i,5.9%,i,x
Cn1c(C(=O)NCCc2ccsc2)cc2c(=O)n(C)c3ccccc3c21,x,x,-0.4%,x,3%
N#Cc1c(-c2ccco2)cc(C2CC2)nc1N,4.9e-09,i,x,i,x
Cc1ccc(-n2c(SCc3nnc4n3CCC4)nnc2-c2ccccc2)cc1,2.4e-08,i,-2.2%,i,1%
O=C(O)CN(c1ccc(F)cc1)S(=O)(=O)c1ccc2c(c1)OCCO2,x,x,1.5%,x,11%
Cc1cc(Nc2ccccc2)n(CCOC(=O)COc2ccccc2)n1,3.4e-09,i,0.1%,i,1%
COc1ccc(OCCSc2nc3ccccc3n2CC(=O)O)cc1,x,x,1.0%,x,4%
CC(C)c1ccc(NC(=O)c2cccnc2)cc1,x,x,-0.7%,x,-11%[11.4 µM]
CCOc1cc(C2C(C(=O)O)c3cc(OCC)c(OCC)cc3C(=O)N2C)ccc1O (stereo not drawn),9.6e-09,i,-0.5%,i,1%[11.4 µM]
CCCCN(C(=O)NC(=O)Nc1c(C)cc(C)cc1C)S(C)(=O)=O,3.5e-09,i,0.7%,i,17%
CC(NC(=O)c1noc2c1CCCC2)c1ccccc1 (stereo not drawn),5.6e-09,i,-2.0%,i,-5%
CC(C)C(=O)Nc1cccc(NC(=O)c2cc3ccccc3o2)c1,2.9e-08,i,0.2%,i,x
